Assay outcomes: PubChem BioAssay, ICCB-Longwood Screening Facility, Harvard Medical School
GIV Gai3 FP – GIV-Galpha-i interaction inhibition. Galpha-i3/FITC-GIV peptide fluorescence polarization, 90 min; stronger effect = lower value; scaled: aluminum fluoride 0%, vehicle 100%. percent of control (FP), % (no concentration beside the values). 210,000 tested, 0.42% active. AID 1224905;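 active means replicate mean at 85% of control or lower, very high polarization wells dropped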;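 further: wells of about 15 µL received 100 nL stock; the first replicate is given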
Target sequence (P08753 whole entry, looked up): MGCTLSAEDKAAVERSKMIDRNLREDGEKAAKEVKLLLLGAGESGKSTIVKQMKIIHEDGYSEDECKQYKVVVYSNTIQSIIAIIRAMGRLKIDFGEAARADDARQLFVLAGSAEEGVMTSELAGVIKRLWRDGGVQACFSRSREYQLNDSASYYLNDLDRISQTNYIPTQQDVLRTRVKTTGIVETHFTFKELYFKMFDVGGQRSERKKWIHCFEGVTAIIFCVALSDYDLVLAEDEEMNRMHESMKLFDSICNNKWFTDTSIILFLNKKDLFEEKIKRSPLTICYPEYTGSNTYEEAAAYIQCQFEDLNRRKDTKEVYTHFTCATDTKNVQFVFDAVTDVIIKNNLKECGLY
Sa growth 42C – S. aureus growth inhibition; S. aureus RN4220 growth, OD600, 20 h, 42 °C; stronger effect = lower value; relative growth, % (concentration not given with the values); 170,000 tested, 0.53% active; AID 720641;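 active means growth at 42 °C up to 50% and 20 or more points under that at 30 °C, or under 10% at both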;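 further: 300 nL library stock went into each well; scaled to the means of positive and negative controls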
HCMV UL50-53 inh – inhibitors of HCMV UL50-UL53 nuclear egress complex interaction | HTRF UL50-UL53 interaction, normalized percent inhibition | inhibition, % (no concentration beside the values) | 190,000 tested, 0.15% active | AID 1918969;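 active means both replicates at 50% or more, plus weaker picks with an unusually low signal ratio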;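 further: stock transfer was 100 nL into about 20 µL; 0% = negative control wells and 100% = wells with untagged competitor protein; inactives centre near -12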
Sa growth 42C second temp – also measured in Sa growth 42C; calls as there; relative growth, %; measured here: growth at 30 °C;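 optical density after 20 h as mean of two plates; 100% = untreated growth and lower means inhibition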
* hit, by the source's call; / = no result given; & = joins results of further samples.

SMILES,GIV Gai3 FP,Sa growth 42C,Sa growth 42C second temp,HCMV UL50-53 inh
CN(C)CCCNc1nc(-c2cccnc2)nc2ccccc12,108,99,97,3
Cc1ccc2oc(-c3ccc4c(c3)OCO4)cc(=NC(C)C(=O)O)c2c1 (stereo unspecified),/,108,96,-87
Cc1cc(=O)oc2cc(OCC(=O)c3cccs3)ccc12,/,65,92,-28
Cc1cc(C)n(-c2nc(C)c(C(=O)N3CCN(c4ccccc4)CC3)s2)n1,92,/,/,-5
Cc1ccc(CCP(=O)(O)CCc2ccc(C)nc2)cn1,/,122,93,8
O=C(O)c1ccccc1C(=O)NCCc1ccccc1,99,107,83,/
Nc1cc2c(cc1Cl)OCCO2,101,94,89,-7
O=C(COc1ccccc1)Nc1nnc2n1CCS2,106,107,83,/
Cc1ccc(CNCCc2cccs2)s1,/,108,99,-18
COc1ccc(Cl)cc1NC(=O)CCS(=O)(=O)c1nc(-c2cccs2)cc(C(F)(F)F)n1,105,76,88,-36
CC1CCN(C(=O)CCCn2c(=O)c3cccn3c3ccccc32)CC1,99,/,/,-8
CCN1CCN(c2cc(C)nc3c(-c4ccc(F)cc4)c(C(F)(F)F)nn23)CC1,100,/,/,-27
CC(C)COC(=O)c1ccccc1OC(=O)c1ccncc1,102,98,86,-13
COc1ccc(C2C=C(c3ccccc3)Nc3nc(NC(=O)c4cccc([N+](=O)[O-])c4)nn32)cc1 (stereo unspecified),100,87,77,-70
OC(CNCc1cn(-c2ccccc2)nc1-c1cccs1)CN1CCOCC1 (stereo unspecified),/,119,93,-16
Cc1nc2ccccc2c2oc(C(=O)N3CCC(C)CC3)cc12,103,114,71,/
CCOC(=O)C1=C(C)N2CCN=C2S1,104,106,82,/
COc1ccc(-c2cn3c(C)c(C(=O)N4CCc5ccccc54)sc3n2)cc1,102,113,85,/
CC(=O)c1ccc(S(=O)(=O)N2CCn3cccc3C2c2ccc(C)cc2)cc1 (stereo unspecified),97,117,88,/
Cc1nc(SC(C)C(=O)NC2(C#N)CCCCC2)c2ccccc2n1 (stereo unspecified),/,77,82,-22
FC(F)(F)c1cc(-c2ccc3ccccc3c2)nn1C(=S)N1CCOCC1,97,113,102,/
CCn1c(CSc2nnc3ccccn23)nc2cc(S(=O)(=O)N(C)C)ccc21,/,85,100,0
Cc1ccc(C)c(NC(=O)c2cc(S(=O)(=O)N3CCc4ccccc4C3)ccc2F)c1,100,117,93,/
O=C1c2ccccc2C(=O)C1c1ccccc1F,109,106,85,-4
Cc1ccc(Cl)cc1N1CCN(CCCNC(=O)c2ccc3nc(N4CCCCC4)sc3c2)CC1,97,101,88,-24
CCOC(=O)c1ccccc1NC(=O)Cn1c(-c2cccs2)noc1=O,104,86,72,/
COc1cc(NC(=O)CSc2ccc(-c3ccccn3)nn2)cc(OC)c1,102,83,72,/
CCCCOC(=O)/C(C#N)=C\c1ccc(-c2ccc(Cl)cc2)o1,105,95,85,-38
O=C(CCCN1C(=O)c2cccnc2C1=O)Nc1ccc(C(F)(F)F)cc1,106,108,91,/
O=C(CCN1Cc2ccccc2C1)c1ccc2c(c1)OCCO2,/,86,72,-13

The last two compounds of the section before open the next one:
SMILES,GIV Gai3 FP,Sa growth 42C,Sa growth 42C second temp,HCMV UL50-53 inh
O=C(CCCN1C(=O)c2cccnc2C1=O)Nc1ccc(C(F)(F)F)cc1,106,108,91,/
O=C(CCN1Cc2ccccc2C1)c1ccc2c(c1)OCCO2,/,86,72,-13
O=C(Nc1ccccc1N1CCN(c2ccccc2)CC1)c1ccccc1,105,91,106,28
COc1cccc(CNS(=O)(=O)c2ccc3c(c2)C(C(C)C)C(=O)N3)c1 (stereo unspecified),110,118,108,/
Cc1ccc(S(=O)(=O)C2(C(=O)N3CCN(c4ccccc4)CC3)CC2)cc1,106,101,90,/
CCC(CC)c1nnc(NC(=O)Cc2csc(C)n2)s1,106,77,81,-25
COc1ccc2[nH]cc(CCNS(=O)(=O)c3ccc(-n4cnnn4)c(OC)c3)c2c1,110,106,94,5
CCOC(=O)c1c(NC(C)=O)sc2c(OCC(O)CNC(C)(C)C)c(Br)ccc12 (stereo unspecified),100,89,82,-8
CC(C)N(C(C)C)S(=O)(=O)c1ccc(NCCc2ccc(S(N)(=O)=O)cc2)nc1,/,91,91,-3
O=C(NCc1nc2ccccc2[nH]1)c1ccc(S(=O)(=O)N2CCCC2)cc1,/,104,81,-8
O=C(Cc1ccc(CC(=O)c2ccccc2)cc1)c1ccccc1,101,95,87,1
O=C1CC(Cc2ccccc2)C(=O)N1c1cccc(C(F)(F)F)c1 (stereo unspecified),/,120,99,-7
Cn1cc(S(=O)(=O)NCC2CCCO2)c(=O)n(C)c1=O (stereo unspecified),102,90,85,-42
CCOC(=O)c1ccc(N2C(=O)c3n[nH]c(-c4cccs4)c3C2c2cccc(OC)c2)cc1 (stereo unspecified),103,104,76,0
Cc1[nH]nc2c1C(C(C)C)C(C#N)=C(N)O2 (stereo unspecified),/,77,74,-4
O=C(c1cnc2ccccc2c1Nc1ccc(F)cc1)N1CCOCC1,98,/,/,-28
CCOc1ccc(C2C3=C(CCCC3=O)NC3=C2C(=O)c2ccccc23)cc1 (stereo unspecified),103,84,72,-80
O=C(O)c1ccc2c(c1)nc1n2CCCC1,104,88,84,-21
CC1=C(C(=O)N(C)C)C(c2cccs2)NC(=O)N1 (stereo unspecified),/,109,86,-15
O=C(CSc1nc(=O)[nH]c2c1CCC2)NCc1ccc(Cl)cc1,100,117,89,/
O=S(=O)(c1ccc(F)cc1)N1CCc2nc(N3CCCCC3)ncc2C1,106,/,/,-15
COc1cc(C(=O)/C=C/Nc2cc(C)ccc2O)cc(OC)c1OC,133,98,89,-10
CC(C)c1cc(N)cc(C(C)C)c1O,106,89,89,3
COc1ccc(C(=O)OCC(=O)Nc2ccc(N(C)C)cc2)cc1,/,96,99,-4
O=S(=O)(c1cccc2nsnc12)N1CCN(c2cc(-c3cccc(F)c3)ncn2)CC1,102,/,/,6
CCOC(=O)CCCn1ncn2c(cc3occc32)c1=O,107,110,84,-20
O=C(O)/C=C\C(=O)N1CCN(Cc2ccc3c(c2)OCO3)CC1,/,69,86,-13
CCOc1ccc2ncc3c(-c4ccccc4)nn(CC(=O)Nc4cccc(F)c4)c3c2c1,100&102,88,85,7
O=C1[C@H]2CSC3(C(=O)c4ccccc4C3=O)N2C(=O)[C@H]2CSC3(C(=O)c4ccccc4C3=O)N12,106,86,25,-34
CC(N=C1NC(C)(C)Cc2ccccc21)C(=O)O (stereo unspecified),101&104,109,89,13&-18
Cc1ccc(C2C=C(c3ccccc3)NC(=O)C2C#N)cc1 (stereo unspecified),/,95,87,-55
CCc1cccc(NC(=O)c2c(C)oc3ncnc(N4CCCCC4)c23)c1,106,114,95,/
O=C(NCc1cn2ccsc2n1)Nc1ccc(Cc2ccc(NC(=O)NCc3cn4ccsc4n3)cc2)cc1,/,78,80,-11
O=C(CCc1nnc2ccc(N3CCCCC3)nn12)N1CCCC1,102,103,94,-31
NOCc1ccccc1C(F)(F)F,100,/,/,1
CC1=NN(C(=O)c2ccccc2)C(O)(c2ccc(Cl)cc2)C1 (stereo unspecified),105,93,65,/
O=C1CC2(CCN(C(=O)Cc3ccccc3)CC2)Oc2ccccc21,102,113,102,11
Cc1noc(C)c1CC(=O)N(Cc1ccccc1)c1nc2c(s1)CCCC2,/,101,94,11
O=C1NCCN1CCNS(=O)(=O)c1ccc(N2C(=O)CCC2=O)cc1,111,100,101,2
Cc1ccc(NC(=O)NCCCn2c(-c3ccc(F)cc3)nc3cccnc32)cc1C,114,/,/,-10
CCOC(=O)c1cc(CC)sc1NC(=O)COc1ccccc1C,110,99,107,-9
O=C(NN1C(=O)/C(=C2/C(=O)N(Cc3ccccc3)c3ccccc32)SC1=S)c1ccncc1,101,/,/,-8
COc1ccc(CCNC(=O)c2cnc3ccc(C)cn3c2=O)cc1OC,105,111,85,-80
CCC(C)c1ccc(NC(=O)CSc2nncn2N)cc1 (stereo unspecified),100,121,98,-10
Cc1cc(C)cc(NC(=O)N2CCC(N3CCN(Cc4ccccc4)C(=O)C3=O)CC2)c1,99,118,80,/
Cc1cccc(NC2CC(=O)N(c3cccc(Cl)c3)C2=O)c1 (stereo unspecified),102,120,91,-24
CC(C)CNC(=O)Cc1ccc(-n2c(=O)c3ccccc3n(CC(=O)NC(C)C)c2=O)cc1,101,/,/,-14
O=C(NCc1ccccn1)c1ccccc1-c1nc(-c2ccccc2)no1,96,/,/,0
CC12CCC(=O)N1C(C(=O)OCC(=O)N1c3ccccc3NC(=O)C1(C)C)CS2 (stereo unspecified),/,85,87,-19
CCC1(C)CC(CCN)(c2ccc(F)cc2)CCO1 (stereo unspecified),/,105,91,-14
Cc1cc(/C=C2\C(=O)NC(=S)N(c3ccc(F)cc3)C2=O)c(C)n1-c1ccccc1,111,/,/,-9
COc1ccc(COC(=O)C2=C(C)NC(=O)NC2c2ccc(Cl)c(Cl)c2)cc1 (stereo unspecified),106,/,/,-14
CCOc1ccc(/C=C/C(=O)NCc2ccco2)cc1OC,109,95,76,-60
CN1C(=O)/C(=C/c2cn(CC(=O)N3CCOCC3)c3ccccc23)C(=O)NC1=S,106,105,74,/
O/N=C/c1cccn1-c1ccccc1F,99,/,/,-24
Cc1cc(/C=C2/SC(=O)N(C(C)C)C2=O)c(C)n1-c1ccncc1,104,105,87,/
CCc1cccc(-n2c(=O)c3cccnc3n2CC(=O)Nc2ccc(OC)c(Cl)c2)c1,112,92,98,/
O=C1COc2ccc(NC(=O)c3ccc(Cl)cc3)cc2N1,102,/,/,-30
Cc1cccc(N2CCN(C(=O)Cn3c(-c4cccs4)cc4ccccc43)CC2)c1C,102,110,105,/
Cn1c(=O)c(-c2noc(CCC(=O)Nc3ccc(Cl)cn3)n2)nn(-c2ccc(F)cc2)c1=O,109,/,/,-76
COc1ccc(/C=C/C(=O)N2c3ccccc3Sc3ccccc32)c(OC)c1,104,92,78,/
CC(=O)OC(C(=O)Nc1nc2ccccc2s1)c1ccccc1 (stereo unspecified),97,95,52,/
Cn1cc(C(=O)Nc2ccc(F)cc2F)c2[nH]c(=O)n(-c3ccc(Cl)cc3)c(=O)c21,99,/,/,-25

In another format: results already given.
Order of values: GIV Gai3 FP | Sa growth 42C | Sa growth 42C second temp | HCMV UL50-53 inh
O=C(NCc1cn2ccsc2n1)Nc1ccc(Cc2ccc(NC(=O)NCc3cn4ccsc4n3)cc2)cc1
 : / | 78 | 80 | -11
O=C(CCc1nnc2ccc(N3CCCCC3)nn12)N1CCCC1
 : 102 | 103 | 94 | -31
NOCc1ccccc1C(F)(F)F
 : 100 | / | / | 1
CC1=NN(C(=O)c2ccccc2)C(O)(c2ccc(Cl)cc2)C1 (stereo unspecified)
 : 105 | 93 | 65 | /
O=C1CC2(CCN(C(=O)Cc3ccccc3)CC2)Oc2ccccc21
 : 102 | 113 | 102 | 11
Cc1noc(C)c1CC(=O)N(Cc1ccccc1)c1nc2c(s1)CCCC2
 : / | 101 | 94 | 11
O=C1NCCN1CCNS(=O)(=O)c1ccc(N2C(=O)CCC2=O)cc1
 : 111 | 100 | 101 | 2
Cc1ccc(NC(=O)NCCCn2c(-c3ccc(F)cc3)nc3cccnc32)cc1C
 : 114 | / | / | -10
CCOC(=O)c1cc(CC)sc1NC(=O)COc1ccccc1C
 : 110 | 99 | 107 | -9
O=C(NN1C(=O)/C(=C2/C(=O)N(Cc3ccccc3)c3ccccc32)SC1=S)c1ccncc1
 : 101 | / | / | -8
COc1ccc(CCNC(=O)c2cnc3ccc(C)cn3c2=O)cc1OC
 : 105 | 111 | 85 | -80
CCC(C)c1ccc(NC(=O)CSc2nncn2N)cc1 (stereo unspecified)
 : 100 | 121 | 98 | -10
Cc1cc(C)cc(NC(=O)N2CCC(N3CCN(Cc4ccccc4)C(=O)C3=O)CC2)c1
 : 99 | 118 | 80 | /
